Bioassay records as filed in PubChem BioAssay.
Biofilm kill mix: mixture kills Candida albicans biofilm cells; inhibition, % at 7.6 µM; C. albicans biofilm persisters + clotrimazole, fluorescence viability; primary screen in compound mixtures of four per well; AID 1242; 0.02% of 120,000 active;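 active = inhibition above 30.3% in the primary screen of four-compound pools, then above 30% when the compound was retested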;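 note: compounds exposed to preformed 24 h biofilms for 48 h; the number belongs to the whole pool; some results filed as inactive read as strong as hits; inactives centre near 12; 0% = biofilm with clotrimazole alone and 100% = kill control; retested singly at about 60 µM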
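System: C. albicans CAF4-2 wild-type biofilms; Medium: RPMI/MOPS medium, pH 7.0; Reagent: Clotrimazole, 50 µg/mL; Times: biofilm formation 24 h, compound exposure 48 h, 37 °C; Detection: 2-h Alamar Blue fluorescence, 535/590 nm excitation/emission; Evaluation: percent inhibition of biofilm viability.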
* marks the source's active call; other numbers are inactive results.

SMILES	Biofilm kill mix
CC(C)(C)C(=O)Nc1ccc(Sc2ccc([N+](=O)[O-])cc2)cc1	13.2
COc1cccc(NC(=O)CN(c2ccc([N+](=O)[O-])cc2)S(=O)(=O)c2ccccc2)c1	15.3
CCCN1C(=O)/C(=C\c2nc3ccccc3c(=O)[nH]2)c2ccccc21	31.0
CCOc1cc(NC(=S)NC)c(OCC)cc1NC(=O)c1ccco1	21.3
Oc1ccccc1CNc1ccc2c(c1)OCCO2	10.7
CCOc1ccc(/C=C/C(=O)c2ccccc2)cc1OC	7.2
CNC(=O)/C(C#N)=C/c1c(F)cccc1Cl	9.4
Cc1ccc(OCc2nc(-c3ccccc3)no2)cc1	9.9
CCCOc1ccc(C2C3=C(Nc4nc(N)[nH]c(=O)c42)c2ccccc2C3=O)cc1 (stereo not given)	19.9
CN(C)c1ccc(N2C(=O)CSC2=S)cc1	0.3
CCN(CC)C(=O)Oc1ccc(Cl)c2cccnc12	-2.4
COCCCNC(=S)N(Cc1ccccc1)Cc1ccccc1	8.7
CCOP(=O)(OCC)/C(C#N)=C/c1ccc(-c2ccc(F)cc2F)o1	14.1
Cc1cc(C)c(S(=O)(=O)N(C)CC(=O)NCc2ccccn2)c(C)c1	15.5
CC(C)NC(=O)C(=O)c1cn(C)c2ccccc12	7.1
COc1ccc(CNC(=O)C2=CCN(S(=O)(=O)c3ccc(C)cc3)CC2)cc1	18.9
Cn1c(N)c(C(=O)c2ccc(Cl)cc2)c(=O)n(C)c1=O	15.7
O=C(CN1CCC(NC(=O)C2CCCCC2)CC1)NCc1ccco1	17.5
COc1ccc(CCC(=O)Nc2cccc(Cl)c2)cc1	16.4
Cc1ccc(C(=O)NCC(=O)NCC(=O)OCc2ccc(F)cc2)cc1	5.4
CC1(C)CC(c2nc(-c3ccccc3)cs2)CCS1 (stereo not given)	13.7
CCc1cccc(CC)c1NC(=O)COc1ccccc1C(=O)c1cc(C#N)c(=O)n(C2CCCCC2)c1	3.0
CC(C)(C)c1ccc(NC(=O)c2ccccc2)c([N+](=O)[O-])c1	4.9
Cc1ccc(NS(=O)(=O)c2cc3c4c(cccc4c2)C(=O)NC3=O)cc1	13.4
O=c1oc2cc([N+](=O)[O-])ccc2nc1/C=C(\O)c1cccc(Br)c1	15.0

Continued; the last 4 above are carried over.
SMILES	Biofilm kill mix
CCc1cccc(CC)c1NC(=O)COc1ccccc1C(=O)c1cc(C#N)c(=O)n(C2CCCCC2)c1	3.0
CC(C)(C)c1ccc(NC(=O)c2ccccc2)c([N+](=O)[O-])c1	4.9
Cc1ccc(NS(=O)(=O)c2cc3c4c(cccc4c2)C(=O)NC3=O)cc1	13.4
O=c1oc2cc([N+](=O)[O-])ccc2nc1/C=C(\O)c1cccc(Br)c1	15.0
CS(=O)(=O)c1ccc(C(=O)NCC(c2ccco2)N2CCCCC2)cc1 (stereo not given)	16.4
COc1cc(C2NC(=O)NC(c3ccccc3)=C2C(C)=O)cc([N+](=O)[O-])c1O (stereo not given)	15.5
CCOC(=O)N1CCN(CC(O)COc2ccc(OC)cc2C(C)(C)C)CC1 (stereo not given)	15.4
Cc1ccc(S(=O)(=O)N2CCOC2CNC(=O)C(=O)NCc2ccncc2)cc1 (stereo not given)	26.5
Cc1ccc2c(c1)c(N=O)c(O)n2Cc1ccc(Cl)cc1	16.6
CC(/C=N/NC(=O)CSc1nnc(SCc2ccccc2)s1)=C\c1ccco1	10.5
Cc1ccc(C)c(-n2c3nc(=O)n(C)c(=O)c-3cc3ccccc32)c1	28.2
Nc1ccc(NC(=S)Nc2ccccc2)cc1	17.0
CSc1ccccc1C(=O)C1CCCN(C(=O)CCN2CCCO2)C1 (stereo not given)	11.7
Cc1ccc(-c2nn(CC(=O)NN3CCOCC3)c(=O)c3ccccc23)cc1	23.8
O=[N+]([O-])c1ccc(S(=O)(=O)NCCc2ccncc2)cc1	10.1
Cc1cc(C(=O)N/N=C/c2ccc(N(C)C)cc2)c2ccccc2n1	15.5
Cc1cc(C(=O)NCc2ccc(F)cc2)n(-c2ccccc2)n1	18.6
CC1CCC(N(C(=O)c2csnn2)C(C(=O)NC(C)(C)C)c2cccnc2)CC1 (stereo not given)	11.3
COc1ccc(NC(=O)CNC(=O)c2ccc([N+](=O)[O-])cc2)cc1	4.1
COc1ccc(CCNC(=O)COc2ccc(N(C)S(=O)(=O)c3ccc(C)cc3)cc2)cc1	10.6
CCS(=O)(=O)N1CCN(c2ccnc3cc(Cl)ccc23)CC1	18.7
Cc1c(-c2nc(-c3ccncc3)no2)cccc1[N+](=O)[O-]	19.6
COc1cccc(OC)c1C(=O)Nc1cccnc1	8.5
Cc1cnc(C(=O)N2CCc3c([nH]c4ccccc34)C2c2ccc(F)cc2)cn1 (stereo not given)	7.1
CCOc1ccc(CN(C)C(=O)CCl)cc1	9.7
O=C(CC1C(=O)NCCN1Cc1ccc(Cl)c(F)c1)NCCc1cccnc1 (stereo not given)	11.9
CC(C(=O)NC1CC(C)(C)NC(C)(C)C1)c1ccc([N+](=O)[O-])cc1 (stereo not given)	5.4
CCOc1ccccc1NC(=O)Nc1ccc(Br)cc1C	-0.4
COc1ccc(NC(=O)CC2SC(=N)N(c3ccccc3)C2=O)c(OC)c1 (stereo not given)	5.8

Next section; the last 2 above are carried over.
SMILES	Biofilm kill mix
CCOc1ccccc1NC(=O)Nc1ccc(Br)cc1C	-0.4
COc1ccc(NC(=O)CC2SC(=N)N(c3ccccc3)C2=O)c(OC)c1 (stereo not given)	5.8
COc1ccc(NC(=O)Cc2c(F)c(F)c(F)c(F)c2F)cc1OC	11.7
Clc1ncc(Cn2cccn2)s1	20.9
Cc1nc(Cl)sc1C(=O)Nc1cccc2ccccc12	3.0
CNC(=O)COC(=O)Cc1ccc(Cl)cc1	-2.2
COCCNC(=O)c1ccccc1NC(=O)c1cc(OC)cc(OC)c1	17.7
c1ccc(Oc2ncnc3sccc23)cc1	1.1
CCCCC(=O)Nc1nnc(-c2ccc(OC)cc2)s1	11.0
CCCCNc1ccc(C(CC(N)=O)NC(=O)c2ccccc2)cc1[N+](=O)[O-] (stereo not given)	14.0
COc1ccc(-c2nnc(-c3cc(OC)c(OC)c(OC)c3)o2)cc1OC	10.9
CNc1nc(N)c(C(=O)Nc2cc(C)on2)s1	4.1
CCN(Cc1ccccc1)C(=O)COC(=O)c1cc(=O)[nH]c2ccccc12	9.4
Cc1cc(NC(=O)c2cc(-c3ccc(C)c(C)c3)nc3ccccc23)no1	12.4
O=C(Nc1ccc(Cl)c(Cl)c1)Nc1ccc(Br)cc1F	12.4
CNC(=O)CSc1nnnn1-c1cc(C)ccc1C	15.1
COc1ccc(S(=O)(=O)N2CCOC2CNC(=O)C(=O)NCc2cccnc2)cc1OC (stereo not given)	14.5
CC(=O)Nc1cccc(NC(=O)c2ccc(C(=O)Nc3cccc(NC(C)=O)c3)nc2)c1	11.4
O=C(CN1C2CCCC1CC(NC(=O)C1CCCCC1)C2)NCc1ccc(F)cc1 (stereo not given)	-22.9
Cc1[nH]c2c(C)cccc2c1CN1CCC(CO)(Cc2ccccc2)CC1	24.5
CN(C)c1cc(N/N=C/c2ccc(Cl)cc2)nc(N(C)C)n1	-0.6
CCC(CC)c1nc2ccccc2c(=O)[nH]1	27.6
O=C(CN1C2=NCCCN2c2ccccc21)c1ccc(Cl)cc1Cl	13.3
COc1ccc(C(=O)O)cc1N1C(=O)Nc2ccccc2N1O	2.8
CN(NC(=O)c1ccccc1F)c1nc(C(F)(F)F)nc2ccccc12	-21.7
COc1ccc(CC(=O)Nc2ccccc2N2CCCCC2)cc1OC	7.0
O=C(O)c1ccc2ncc(NC(=O)c3ccc(F)cc3)c(=O)n2c1	11.8
Carrying on:
SMILES	Biofilm kill mix
COc1cccc(NC(=O)c2nn(-c3ccc(OC)cc3OC)c(=O)c3ccccc23)c1	16.7
O=C(NCCC1=CCCCC1)C(=O)NCc1ccncc1	6.3
C/C=C/c1ccc(OCC(=O)NCc2ccccc2OC)c(OC)c1	3.2
O=C(O)/C=C/c1ccc(O)c(O)c1	8.3
CCOC(=O)c1ccc(NC(=S)NN2CCOCC2)cc1	14.2
O=C(COC(=O)CN1C(=O)C2CCCCC2C1=O)NC1CCS(=O)(=O)C1 (stereo not given)	14.2
CC(C)(C)NC(=O)NC(=O)CN1CCN(c2ccccc2)CC1	-8.0
Cc1ccc(N(CC(=O)NCc2ccco2)C(=O)CCC(=O)Nc2nccs2)cc1	19.7
CC(C(=O)Nc1cc([N+](=O)[O-])ccc1Cl)N1CCN(c2ccc(O)cc2)CC1 (stereo not given)	14.5
Cc1cccc(-c2noc(-c3ccccc3C(=O)NCc3ccco3)n2)c1	-4.8
Cc1nnc(SCC(=O)NC2CCCCC2)n1C1CCCCC1	17.0
Fc1ccc(C(CNC(=S)NC2CCCCC2)N2CCOCC2)cc1 (stereo not given)	13.7
O=C(O)/C=C/C(=O)Nc1ccc2c(c1)C(=O)c1ccccc1C2=O	30.5
CCCCn1c(SCC(=O)c2ccccc2)nc2ccsc2c1=O	13.7
Cc1cccc(Nc2c3c(nc4ncnn24)CCC3)c1	20.4
Cc1ccccc1CNC(=O)c1ccccc1C(=O)O	14.1
CCC(O)(CC)C(=O)NN(C(=O)Nc1csc2c1CCCC2)c1ccccc1	17.3
CC(C)c1ccc(/C=C/C(=O)Nc2nn[nH]n2)cc1	13.5
N/C(=N\OC(=O)CC1CCCCC1)c1ccncc1	3.9
CCc1ccc2nc(N3C(=O)c4oc5ccccc5c(=O)c4C3c3ccc(OC)c(OC)c3)sc2c1 (stereo not given)	7.0
COc1ccc(C(=O)NCc2ccc3c(c2)OCO3)cc1S(=O)(=O)N(C)Cc1ccccc1	7.3
COCCCn1c(SCC(=O)Nc2ccccc2)nnc1-c1ccncc1	12.0
N#Cc1ccc(C(=O)Nc2nc(SCc3ccc(Cl)cc3)n[nH]2)cc1	15.8
N#CC1=C(N)Nc2ncnn2C1c1ccccc1 (stereo not given)	10.9
CCN(CC)C(=O)Nc1ccc(Br)cc1	13.9

Grouped by structure, the compounds so far with a furan ring, fused or not.
SMILES	Biofilm kill mix
CCOc1cc(NC(=S)NC)c(OCC)cc1NC(=O)c1ccco1	21.3
CCOP(=O)(OCC)/C(C#N)=C/c1ccc(-c2ccc(F)cc2F)o1	14.1
O=C(CN1CCC(NC(=O)C2CCCCC2)CC1)NCc1ccco1	17.5
CS(=O)(=O)c1ccc(C(=O)NCC(c2ccco2)N2CCCCC2)cc1 (stereo not given)	16.4
CC(/C=N/NC(=O)CSc1nnc(SCc2ccccc2)s1)=C\c1ccco1	10.5
Cc1ccc(N(CC(=O)NCc2ccco2)C(=O)CCC(=O)Nc2nccs2)cc1	19.7
Cc1cccc(-c2noc(-c3ccccc3C(=O)NCc3ccco3)n2)c1	-4.8

Later entries:
SMILES	Biofilm kill mix
O=C(Nc1ccc(Cl)cc1)N1CCC(c2ccccc2)C1 (stereo not given)	14.7
Cn1c(N)nc2ccccc2c1=O	26.4
COc1cc(NC(=O)COC(=O)CNC(=O)c2ccc(Cl)cc2)c(C)cc1[N+](=O)[O-]	11.7
COc1cc(C)ccc1OCCCCOc1ccccc1C(C)=O	10.6
Cc1ccc(-c2cc(Cc3ccc(F)cc3)c(=O)[nH]n2)cc1	20.8
CCCCC(=O)N1C/C=C\C(c2ccc(OC)cc2)N(Cc2ccc(F)cc2)C(=O)[C@H]1Cc1ccccc1 (stereo not given in full)	10.5
Nc1[nH]n(-c2ccccc2)c(=O)c1N=Nc1ccccc1	9.2
COc1ccc(/C=C/C(=O)c2cc3cccc(OC)c3oc2=O)cc1	6.6
CCN(CC)S(=O)(=O)c1cc(C(=O)OCC(=O)Nc2ccc(-c3nc4ccc(C)cc4s3)cc2)ccc1F	17.5
Cc1cc(OC(F)F)ccc1NC(=O)Nc1ccc([N+](=O)[O-])cc1	-9.3
Cn1c(=O)[nH]c(=O)c2c1nc1n2CCCN1Cc1ccccc1	20.5
CC(C)c1ccc(NC(=S)NN2C(C)CCCC2C)cc1 (stereo not given)	10.2
CN1C(=O)C(N=Nc2ccccc2C(=O)O)N(C)C1=S (stereo not given)	8.9
COc1ccc(-c2noc(CCC(=O)NCCCN3CCN(c4ccccc4F)CC3)n2)cc1	19.4
COc1cc(NC(=O)COc2ccc(Cl)cc2)ccc1-c1cc2ccccc2oc1=O	8.0
Cn1c(=O)c([N+](=O)[O-])c(NCC(O)c2ccccc2)c2ccccc21 (stereo not given)	4.8
CCN1CCC(NC(=O)Nc2ccc(F)cc2)CC1	1.7
CC(=O)N(CCC(c1ccco1)C(C)C)Cc1ccc(OC(C)C)cc1 (stereo not given)	17.5
CC1(C)CNc2cc([N+](=O)[O-])ccc2S1	17.8
CCC1=C2CC[C@H]3C(=O)N(C)C(=O)[C@H]3[C@H]2[C@@]2(Cc3ccccc3)C(=NCC(=O)OC)OC(=O)N2C1=O	16.1
COCCCNC(=S)NNC(=S)Nc1cccc(Cl)c1	19.7
COc1ccc2c(C)cc(Sc3nnnn3-c3ccccc3)nc2c1	11.1
Cc1ccc(NC(=O)CSc2nnc(-c3cccnc3)s2)cc1	-4.5
CC(=O)c1c(C)[nH]c(C(=O)CSc2nnc(-c3ccco3)o2)c1C	12.4
N#CC(C#N)=C1C=CC=CN1/C(=C\c1ccco1)C(=O)c1ccc(-c2ccccc2)cc1	6.5
NC(=O)NC(=O)CSc1nc2cc([N+](=O)[O-])ccc2n1-c1cccc(C(F)(F)F)c1	22.4
COc1ccc(/C=C\C(=O)Oc2cccc(/C=N/NC(=O)Cc3ccc(OC)c(OC)c3)c2)cc1	22.9
COc1ccc(NC(=O)c2cccc([N+](=O)[O-])c2)cc1	28.7
Cn1cc([N+](=O)[O-])c(C(=O)NCc2cc3ccccc3[nH]2)n1	18.0

An excerpt (hit frequency here may not be typical).
